Screening data: PubChem, several laboratories
MLL AF4-AF9 inh: inhibitors of AF4 peptide binding to AF9, primary screen, biochemical, AlphaScreen, biotin-AF4 peptide, FLAG-AF9, single point | Protein AF-9 (Homo sapiens), P42568 | inhibition, % at 10 µM | 0.47% of 350,000 active;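 active = every replicate reaching a set inhibition limit, whatever the replicate mean, cut at about 25% in these data; inconclusive = mean inhibition reaches that limit but some replicates miss it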;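 also: 0% = plate neutral control median and 100% = total signal loss; the record names both 10 and 1 µM as test concentration; the first replicate is given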
Target sequence (P42568 whole entry, looked up): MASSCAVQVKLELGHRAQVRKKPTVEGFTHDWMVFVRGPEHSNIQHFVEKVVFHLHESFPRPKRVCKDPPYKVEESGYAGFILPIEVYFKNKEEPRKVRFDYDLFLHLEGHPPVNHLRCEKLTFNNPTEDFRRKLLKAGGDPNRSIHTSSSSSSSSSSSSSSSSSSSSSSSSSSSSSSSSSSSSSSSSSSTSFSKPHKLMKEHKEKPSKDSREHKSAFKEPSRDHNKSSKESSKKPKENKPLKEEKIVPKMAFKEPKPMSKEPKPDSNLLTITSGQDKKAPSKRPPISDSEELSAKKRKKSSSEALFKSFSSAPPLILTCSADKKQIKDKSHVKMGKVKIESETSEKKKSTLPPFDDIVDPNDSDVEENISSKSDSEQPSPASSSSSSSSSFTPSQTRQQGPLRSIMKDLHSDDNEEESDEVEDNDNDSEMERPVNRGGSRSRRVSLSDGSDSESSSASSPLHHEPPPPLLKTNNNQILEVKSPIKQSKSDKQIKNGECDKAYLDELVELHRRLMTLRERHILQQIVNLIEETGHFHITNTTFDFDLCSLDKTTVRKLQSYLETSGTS
Vif A3G: inhibitors of Vif binding to APOBEC3G peptide, primary screen, biochemical, TR-FRET, GST-Vif 1-94, biotin-A3G peptide, dose response retest (AID 1117319); TR-FRET GST-Vif / biotin-A3G peptide binding; higher % means a stronger effect; test concentration not given here; strong numbers were not always called active; one-dose inhibition, %; IC50 in µM for titrated hits; 0.57% of 260,000 active;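 active = above the screen mean plus three standard deviations and confirmed in dose response; inconclusive = results disagree or hit not tested in dose response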;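 also: Vif residues 1-94 fused to GST binding biotinylated APOBEC3G peptide 110-148; 0% = full assay without inhibitor and 100% = GST in place of GST-Vif; retest series ran down from 100 µM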
Ecoli rRNA inh: reduced GFP signal of wild-type E. coli, primary screen, bacterial rRNA inhibitor project, GFP/RFP fluorescence, OD600, single point | E. coli WT GFP vs humanized-ribosome RFP mutants, 24 h; active compounds read low; DMSO median 0, no signal -100 | GFP signal change (wild-type ribosome), % (concentration not given with the values) | 1.6% of 350,000 active | AID 720706, 2013;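 active = significant combined selectivity score with lowered wild-type GFP, culture density cut under 30%, mutant RFP and density less affected; inactive = any of these conditions unmet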; also: one replicate is shown; some compounds called inactive have numbers as strong as hits
Ecoli rRNA inh OD600: also measured in Ecoli rRNA inh; calls as there; OD600 change, %; measured here: OD600 growth;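 optical density of the mix in the first replicate; 0 = DMSO median and -100 = no signal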
Ecoli rRNA inh RFP: further read-out of Ecoli rRNA inh, marked with its call; RFP signal change, %; measured here: RFP humanized mutant strains;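 first replicate; 0 = DMSO median and -100 = no signal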
Starred values were filed as active, the others as inactive; ? = inconclusive; & = joins results of further samples.

SMILES	MLL AF4-AF9 inh	Vif A3G	Ecoli rRNA inh	Ecoli rRNA inh OD600	Ecoli rRNA inh RFP
O=C1CC(=Nc2ccc([N+](=O)[O-])cc2)NN1c1c(Cl)cc(Cl)cc1Cl	8.1	8.7%	-15.5	15.2	37.6
O=C1CCCCc2cc(O)c(O)cc21	-9.0	0.8%	4.7	4.7	-2.2
CCOC(=O)C(C#N)C(=N)C1C(=O)OC2CCCCC21 (configuration not stated)	-6.2	-1.7%	4.0	15.7	-0.4
COc1ccc([C@H]2C[C@H](O)[C@@H](n3cc(-c4ccc(F)cc4)nn3)CN2CC2CCCCC2)cc1	4.6	5.5%	7.9	3.0	1.8
COc1ccc(C(CNC(=O)c2ccc(OCc3cscn3)cc2)N2CCCC2)cc1 (configuration not stated)	1.5	3.1%	-6.2	4.7	-0.4
Cc1c(Cl)cc(C(C)C)c(O)c1CN1CCOCC1	-0.3	-0.2%	-7.0	-23.0	-14.1
O[C@H]1C[C@H](c2ccccc2)N(CC2CCCCC2)C[C@@H]1n1cc(C2CC2)nn1	3.1	-3.2%	-20.4	-50.5	4.6
O=C1CCC(C(=O)N2CCN(c3cnccn3)CC2)CN1CCc1ccccc1 (configuration not stated)	1.4	2.9%	9.8	11.9	-1.9
CC(C)[C@H](NC(=O)OCc1ccccc1)C(=O)OCC(=O)N1CCCCC1	-1.9	-0.2%	-1.1	-4.8	-1.1
CCOCCCn1c(SCC(=O)NC2CCCCC2)nc2ccccc2c1=O	2.1	-8.4%	7.4	15.7	-2.1
COc1ccc([C@H]2C[C@H](O)[C@@H](n3cc(-c4ccc(F)cc4)nn3)CN2Cc2cccs2)cc1	1.5	6.1%	2.6	8.5	-2.3
Cc1nc2ccccn2c(=O)c1NC(=O)c1ccc2c(c1)OCO2	-2.0	-0.4%	8.2	9.9	0.1
CC1CCCC(O)(C(C(=O)O)c2ccccc2)C1 (configuration not stated)	-1.9	-2.5%	3.4	2.9	3.5
N#Cc1ccc(C(S(=O)(=O)Cc2ccccc2)S(=O)(=O)Cc2ccccc2)cc1	-0.7	2.4%	-2.0	-12.3	-3.1
COCC(C)n1c(SCC(=O)NC2CCCCC2)nc2ccccc2c1=O (configuration not stated)	-6.5	6.6%	5.6	10.4	4.3
C[C@@H]1CCCCO[C@H](CN(C)C(=O)C2CCCCC2)[C@@H](C)CN([C@H](C)CO)C(=O)c2cc(N(C)C)ccc2O1	1.3&1.3&0.0	5.7%	-0.7	-2.9	0.2
CN(NS(=O)(=O)c1ccccc1)C(=O)c1ccccc1	-1.1	0.5%	4.4	1.5	2.0
CC1(C)CC(=O)C=C(c2n[nH]nc2C2CCCCC2)C1	-1.8	4.6%	2.9	0.1	0.5
CC(NC(=O)COC(=O)Cc1cccs1)c1ccc(F)cc1 (configuration not stated)	-6.1	4.5%	-0.1	-4.3	3.5
CC(=O)Nc1ccc2c(c1Br)Cc1ccccc1-2	0.5	-10.6%	-38.8	-39.5	-15.9
Cc1ccc(S(=O)(=O)N(C)C[C@H]2Oc3cc(C#Cc4ccccc4)ccc3S(=O)(=O)N([C@H](C)CO)C[C@@H]2C)cc1	-4.8&-1.4&-2.5	-2.6%	18.9&3.4	17.6&-2.2	1.6&-3.5
COc1ccc(NC(=O)COc2cccc3c2OC(C)(C)C3)c(OC)c1	-4.3	?	-5.1	-9.7	-3.9
COc1ccc(CN2C(=O)C(CC(=O)NCC3CCCCC3)CC(C(=O)N(C(C)C)C(C)C)=C2C)cc1 (configuration not stated)	-0.2	-6.2%	-27.5	-43.3	3.8
Nc1o[nH]c(=O)c1C1CCCCC1	-0.6	23.1%	0.5	16.6	-10.5
COCCCN1C(=O)C(CC(=O)NC(c2ccccc2)c2ccccc2)CC(C(=O)N(C)C)=C1C (configuration not stated)	-1.6	2.1%	2.5	9.8	-1.0
CN(Cc1ccccc1Cl)C(=O)C1CC(=O)N(c2ccc3c(c2)OCCO3)C1 (configuration not stated)	-1.8	11.6%	2.4	3.0	1.2
CC12CCC(O)CC1=CCC1C2CCC2(C)C3=NN=CC3CC12 (configuration not stated)	-0.5	-0.3%	-61.2	-78.8	-16.8
C[C@@H](NC(=O)c1[nH]cnc1C(=O)Nc1ccccc1F)c1ccccc1	-0.2	3.6%	-1.9	1.3	1.8
Cc1cccc(CN(C)C[C@@H]2OCc3cnnn3CCCC(=O)N([C@@H](C)CO)C[C@H]2C)c1	-1.2&2.0&-2.2	-4.3%	21.7&-1.8	18.4&-11.6	1.4&-0.4
Cn1cc(S(=O)(=O)NC[C@H]2O[C@@H](n3ccc(=O)[nH]c3=O)[C@H](O)[C@@H]2O)cn1	-1.6	2.0%	18.8	15.6	-0.3
C[C@@H](C(=O)N=c1sc2ccccc2n1C)N1C(=O)C2CC=CCC2C1=O (some centres not stated)	-2.0	-11.7%	-6.6	-18.6	-0.6
CC1=C(C(=O)N(C)C)CC(CC(=O)NC2CCCCC2)C(=O)N1Cc1ccccc1 (configuration not stated)	-2.3	4.8%	2.9	8.0	-11.5
O=C(O)c1c(-c2ccccc2)cnc2ccccc12	-4.9	-6.6%	11.1	6.4	-3.0
CSCCC(NC(=O)c1ccccc1Cl)C(=O)N1CCCC(C)C1 (configuration not stated)	-2.4	0.0%	2.4	11.4	-0.5
CCCCN1C(=O)C(CC(=O)NC(c2ccccc2)c2ccccc2)CC(C(=O)N(CC)CC)=C1C (configuration not stated)	-3.2	-2.0%	-10.1	-11.3	-0.7
Cc1ccsc1C(=O)OCC(=O)NC1CCCCC1	-1.3	-4.6%	1.3	5.3	-2.0
COCCNC(=S)N(C)[C@H]1C[C@H]2c3cc(-c4ccccc4)ccc3CCN2C(=O)[C@H]1[C@H](C)O	2.1	-0.3%	-3.0	-14.2	3.2
O=[N+]([O-])c1cccc(/C=C2\CCc3cnn(C4CCS(=O)(=O)C4)c32)c1 (configuration not stated)	-1.2	1.7%	1.6	0.5	-2.1
COc1ccc(OC)c(N=Nc2c(O)c3ccccc3[nH]c2=O)c1	6.0	2.0%	4.0	7.6	3.6
CN(CC(=O)Nc1ccc(F)cc1)C(=O)CN1C(=O)NC(CCc2ccccc2)C1=O (configuration not stated)	-1.1	-5.6%	-1.6	-6.0	4.9
O=C(NCCCN1C(=O)c2ccccc2C1=O)OCc1ccccc1	-1.4	-4.4%	-8.8	-12.2	1.4
CC[C@@H](C)[C@@H]1CN([C@@H](C)CN2CCC[C@H]2CN2C(N)=NC[C@H]2C(C)C)C(=N)N1CCc1ccc(Cl)c(Cl)c1	16.2	2.0%	-27.7	-76.0	-15.8
NC(=S)c1ccc[n+]([O-])c1	-9.6	-7.8%	5.5	10.9	3.8
S=C1NC[C@H](Cc2ccccc2)N1CC1CCN(CCCCc2ccccc2)CC1	11.4	2.0%	7.2	9.7	1.3
C/C(NCCc1ccc(O)cc1)=C1/CCOC1=O	2.1	0.5%	3.9	1.5	-3.5
CCN1C(=O)[C@H]2[C@@H](c3ccc(C(F)(F)F)cc3)N[C@]3(CCCN(Cc4cccn4C)C3=O)[C@H]2C1=O	7.3	1.3%	2.4	7.1	-0.5
CCc1c(Cl)nc(N)nc1Nc1ccccc1C	-35.0	-5.1%	-13.3	-9.8	-1.2
COc1ccc(C(CNC(=O)COc2ccc(F)cc2Cl)N2CCOCC2)cc1 (configuration not stated)	1.1	4.0%	-2.5	-11.3	1.2

Quoted at random: three compounds from above
SMILES	MLL AF4-AF9 inh	Vif A3G	Ecoli rRNA inh	Ecoli rRNA inh OD600	Ecoli rRNA inh RFP
COc1ccc(OC)c(N=Nc2c(O)c3ccccc3[nH]c2=O)c1	6.0	2.0%	4.0	7.6	3.6
O=[N+]([O-])c1cccc(/C=C2\CCc3cnn(C4CCS(=O)(=O)C4)c32)c1 (configuration not stated)	-1.2	1.7%	1.6	0.5	-2.1
C/C(NCCc1ccc(O)cc1)=C1/CCOC1=O	2.1	0.5%	3.9	1.5	-3.5

Next records:
SMILES	MLL AF4-AF9 inh	Vif A3G	Ecoli rRNA inh	Ecoli rRNA inh OD600	Ecoli rRNA inh RFP
CC(OC(=O)/C=C/c1ccco1)C(=O)NC1CCCCC1 (configuration not stated)	-0.2	>100µM*	1.6	12.8	4.5
O=C(Nc1nccs1)c1cnc2sccn2c1=O	-6.5	1.4%	-1.8	-1.5	-2.6
O=C(Cn1cnc2c(NCc3ccccc3)ncnc21)NCCc1cc2ccccc2[nH]1	0.9	11.4%	-10.4	-5.1	1.8
Cc1cc(NC(=O)CON=C(N)CC(=O)Nc2ccccc2Cl)ccc1Br	-4.7	4.5%	-8.5	-13.3	0.7
CCOc1cc(CN2CCC(N3CCC(C(=O)NC4CC4)CC3)CC2)ccc1O	1.4	-3.4%	1.5	-1.3	-0.9
CC1(C)CC(NC(=O)c2ccc(F)cc2)CC(C)(C)N1	-0.6	-0.8%	10.8	30.0	0.2
CC(C(C(=O)N1CCCCC1)N1CCCCC1)N1CCCCC1 (configuration not stated)	-10.4	-2.9%	23.6	23.0	0.8
CCCNC(=O)C1CN(S(=O)(=O)c2ccc(Cl)s2)c2ccccc2O1 (configuration not stated)	-1.3	-3.1%	7.1	6.7	-0.7
O=C1CCCc2c1ccc1ccccc21	-3.6	-7.2%	-10.1	-19.3	-2.7
CS(=O)(=O)c1cc(C(=O)O)cc(NCc2ccccc2)c1Oc1ccccc1	-0.1	-2.0%	-2.9	-31.5	-6.3
CC(C)NC(=O)N(C)C[C@H]1OCCCC[C@H](C)Oc2ccc(NC(=O)NC3CCCCC3)cc2C(=O)N([C@H](C)CO)C[C@@H]1C	-0.5&-2.7&-2.2	3.9%	-2.5	-4.1	-0.9
CNC[C@@H]1OCc2ccccc2-c2ccccc2C(=O)N([C@@H](C)CO)C[C@@H]1C	4.5&-2.2	-10.6%	5.2&-1.9	-5.2&-2.1	-7.2&0.3
O=C1C(CO)C(CO)C(CO)C1CO (configuration not stated)	5.2	-4.0%	20.8	19.8	1.3
CN1OC[C@@H]2CN(C(=O)c3ccco3)[C@H](c3ccc(-c4ccc(C#N)cc4)cc3)C[C@@H]21	2.1	-1.1%	-18.7*	-13.6*	3.9*
CCN(c1ccccc1)S(=O)(=O)c1c(C)noc1C	-8.6	-1.6%	1.8	5.1	-1.6
CCOC(CN=c1nc(N(C)C)ss1)OCC	-11.3	13.0%	-60.7	-70.6	-17.9
COc1ccc(S(=O)(=O)N(C)C)cc1NC(=O)COC(=O)c1n[nH]c2ccccc12	0.5	-11.9%	-9.6	-32.0	4.6
CN(C)S(=O)(=O)c1cc(C(=O)Nc2ccccc2C(=O)NC2CC2)ccc1Cl	9.1	4.9%	-6.2	-4.9	1.7
C[C@@H]1CN([C@H](C)CO)C(=O)c2c(c3ccccc3n2C)-c2ccccc2CO[C@H]1CN(C)S(=O)(=O)c1cn(C)cn1	0.8	-1.5%	12.2&-0.3	1.4&-7.5	-3.3&-2.7
CCN1CCN(c2sc(S(=O)(=O)CC)nc2S(=O)(=O)c2ccc(Cl)cc2)CC1	1.5	-1.9%	17.9	21.8	4.0
COc1ccccc1N1CCN(CCCN2C(=O)C3CCCCN3C2=O)CC1 (configuration not stated)	2.7	2.4%	12.3	14.1	5.1
O=C(Cc1ccccc1)NN=Cc1ccccc1	-2.9	-4.8%	5.4	-1.0	1.8
O=C(NCc1ccccc1CN1CCCC1)c1ccc(S(=O)(=O)Nc2ccccc2)cc1	-0.2	2.5%	-2.8	-43.5	16.7
Cc1cccc(C(=O)OCC(=O)NC(=O)NC2CCCCC2)c1	-4.9	-2.4%	-6.8	-24.6	-1.7
Cc1cccc(NC(=O)CCc2ccc(N3C(N)=NC(N)=NC3(C)C)cc2)c1	4.1	-0.5%	2.1	32.1	3.9
CCCCC1CC(=O)NC1(C(=O)OCC)C(=O)OCC (configuration not stated)	-5.0	-6.3%	-1.1	6.8	-12.5
O=C1CC2C(CCC23OCCO3)c2ccc3ccccc3c21 (configuration not stated)	-1.6	2.6%	-13.8	-24.4	-6.1
O=C(CN1CCN(C(=O)c2cc(C3CC3)nn2-c2ccccc2)CC1)Nc1ccc(F)cc1	1.7	4.4%	-6.7	-31.6	8.8
CC(=O)Nc1ccc(NC(=O)C2CCN(S(C)(=O)=O)CC2)cc1	-1.2	3.6%	-1.9	4.4	-0.1
Cc1ccc(S(=O)(=O)N2C[C@H]3[C@H]4C(=O)N(c5ccccc5)C(=O)[C@H]4C[C@H](OC(=O)Nc4c(C)noc4C)[C@@]3(O)C2)cc1	-2.0	-0.7%	-2.8*	18.9*	-1.5*
Cc1ccccc1Nc1nc(Cl)nc(NC(C)(C)C)n1	1.1	0.9%	-6.7	-9.3	2.3

A portion of the library, so the mix of outcomes need not match the whole.
